From PubChem BioAssay
HTT prom inh = Primary qHTS for Identification of Small Molecule Inhibitors of Huntingtin Promoter Activity; HEK293 HTT promoter firefly luciferase reporter (activity 0% = vehicle and -100% = no light), 24 h; Potency, µM (titrated, usually from 57.5 µM), inactives show at the top dose activity change, negative = inhibition, most hits filed as inhibitors; hit rate 0.93% among 48,000; AID 1508623, 2021; active = well fitted inhibition curve with a large enough effect; inconclusive = small, poorly fitted or top-dose-only effect; inactive = no such curve, though single readings can be large or run the other way; also: nearly all actives have a fitted effect of over 50% in size
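Luminescence was read after Dual-Glo reagent and a 10 min room-temperature incubation. Values were normalized to vehicle (0% activity) and zero RLU (-100% activity). Reporter HEK293 cells had been exposed to compounds (up to 57.5 uM final) for 24 h.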
PMP22 txn = Cell-based coincidence reporter assay to measure PMP22 gene transcription in S16 Pmp22-F2sN cells - Primary screen; S16 Pmp22-F2sN Schwann cells (luciferase reporters placed in the Pmp22 gene), FLuc/NLuc coincidence luminescence, 24 h; Potency, µM (series often up to 57.5 µM), for the others: at the highest dose activity change, negative = inhibition, most hits filed as inhibitors; hit rate 2% among 43,000; AID 1508649, 2021; active = clear falling dose curves in both reporters; inconclusive = both reporters move, but less clearly or upward; inactive = either reporter flat; the % is the NLuc reporter signal; also: % is scaled to controls: 0 for no effect and ±100 for the full control effect; some results filed as inactive show a strong effect at the top dose
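S16 Schwann cells carrying FLuc/NLuc coincidence reporter in the Pmp22 3' UTR treated with compound 24 h at 37C; FLuc then NLuc luminescence read sequentially by dual-luciferase reagents.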
Starred values were filed as active, the others as inactive; ? = inconclusive; nt = no result given; & = joins results of further samples; [ ] = another dose, or the depositor's remark. Potency is read from the fitted curve at half-maximal effect.

(1) CCOC(=O)c1sc(NC(=O)C(C)Oc2ccc(OC)cc2)c(C(=O)OCC)c1C (centres undefined)
(2) Cc1cc2oc(C(=O)Nc3cccc(-c4nc5ccccc5o4)c3)c(C)c2cc1C
(3) COc1ccc(Cn2c(CO)cnc2SCC(=O)Nc2ccc3c(c2)OCCO3)cc1
(4) CC(C)(C)c1cc(NC(=O)Nc2ccc(-c3cn4c(n3)sc3cc(OCCN5CCOCC5)ccc34)cc2)no1
(5) CCc1ccc(CNC(=O)Cn2c(-c3cccs3)cc3cc(F)ccc32)cc1
(6) CC(=O)c1cc(-c2ccc(F)cc2)n(CCC(=O)NCc2ccc(C)cc2)c1C

| Compound | 1 | 2 | 3 | 4 | 5 | 6 |
| --- | --- | --- | --- | --- | --- | --- |
| PMP22 txn | -38% | -10% | 15% | nt | -1% | -24% |
| HTT prom inh | 3% | 3% | 5% | 9% | ? | ? |

Full records as entered above.
CCc1ccc(CNC(=O)Cn2c(-c3cccs3)cc3cc(F)ccc32)cc1 is listed as PMP22 txn: -1%; HTT prom inh: ?
CC(C)(C)c1cc(NC(=O)Nc2ccc(-c3cn4c(n3)sc3cc(OCCN5CCOCC5)ccc34)cc2)no1 is listed as PMP22 txn: nt; HTT prom inh: 9%
COc1ccc(Cn2c(CO)cnc2SCC(=O)Nc2ccc3c(c2)OCCO3)cc1 is listed as PMP22 txn: 15%; HTT prom inh: 5%

The list continues.
(7) CC1=C(C(=O)Nc2ccc(C)cc2C)C(c2cccs2)n2nc(SCc3cccc(C)c3)nc2N1 (centres undefined)
(8) CCOc1ccc(CCNC(=O)Cn2nnc(-c3ccc(OC)c(OC)c3)n2)cc1OCC
(9) O=C(NCCOCCO)C(=O)Nc1c2c(nn1-c1ccc(F)cc1)CSC2
(10) Cc1c(C(=O)NC(C)c2ccccc2)sc2nc3n(c(=O)c12)CCCC3 (centres undefined)
(11) Cc1cccc(S(=O)(=O)c2cn(C)c3cc(N4CCC(C)CC4)c(F)cc3c2=O)c1
(12) COc1ccc(NC(=O)c2cnc(N3CCOCC3)c3ccccc23)cc1OC

| Compound | 7 | 8 | 9 | 10 | 11 | 12 |
| --- | --- | --- | --- | --- | --- | --- |
| PMP22 txn | -25% | ? | -5% | -2% | -3% | -22% |
| HTT prom inh | -8% | -18% | -10% | 38%[activator] | -11% | -26% |

(13) CCc1ccc(-c2nc(SCC(=O)NCC3CCCO3)c(-c3ccc(C)cc3)[nH]2)cc1 (centres undefined)
(14) Cc1ccc(-n2ncc3c(Nc4ccc5c(c4)OCCO5)ncnc32)cc1C
(15) Cc1ccc(NC(=O)NCc2c(-n3cccc3)sc3c2CCCC3)c(Cl)c1
(16) COc1ccc(C2C(C(=O)Nc3ccccc3)=C(C)Nc3nc(-c4ccccc4)nn32)c(OC)c1 (centres undefined)
(17) COC(=O)c1ccccc1NS(=O)(=O)c1ccc2c(c1)CCCN2C(C)=O
(18) CCN(CC)CCCCNc1ncc2cc(-c3cc(OC)cc(OC)c3)c(NC(=O)NC(C)(C)C)nc2n1

| Compound | 13 | 14 | 15 | 16 | 17 | 18 |
| --- | --- | --- | --- | --- | --- | --- |
| PMP22 txn | 1% | -18% | ? | -52% | -15% | nt |
| HTT prom inh | -11% | -9% | -21% | -18% | -21% | -23% |

(19) Cc1ccc(C)c(Nc2ncnc3onc(C)c23)c1
(20) COc1ccc(C2NC(=O)NC(C)=C2C(=O)Nc2ccccc2)cc1OC (centres undefined)
(21) CCN(CC)C(=O)C1CCCN(c2ncnc3c2c(-c2ccccc2)cn3-c2cccc(C)c2)C1 (centres undefined)
(22) CCOc1ccc(CCNC(=O)c2ccc(Nc3nc4ccccc4n4nnnc34)cc2)cc1OCC
(23) COc1ccc(C2CC(=O)c3c([nH]c(C(=O)OCCOc4ccccc4)c3C)C2)cc1OC (centres undefined)
(24) Cc1cccc(Cn2c(=O)n(CCCC(=O)NCc3ccccc3Cl)c(=O)c3ccccc32)c1

| Compound | 19 | 20 | 21 | 22 | 23 | 24 |
| --- | --- | --- | --- | --- | --- | --- |
| PMP22 txn | -7% | 2% | ? | ? | -17% | ? |
| HTT prom inh | -25% | -11% | ? | 1% | ? | ? |

(25) Clc1ccc(-c2csc(=Nc3ccccc3)n2Cc2ccc3c(c2)OCO3)cc1
(26) O=C(Nc1ccc2oc(-c3cccc(F)c3)nc2c1)c1ccc2ccccc2c1
(27) COc1ccc(CCNC(=O)CN(c2ccccc2)S(=O)(=O)N(C)C)cc1
(28) O=C(CSc1ncc2c(n1)-c1cc(Cl)ccc1N(Cc1ccccc1)S2(=O)=O)NCc1ccccc1
(29) Cc1ccc(NC(=O)Cn2nnc(C(=O)NCc3cccs3)c2N)cc1Cl
(30) Cc1cc(C)cc(NC(=O)Cn2c(=O)n(CC(=O)NCCc3ccccc3)c(=O)c3ccccc32)c1

| Compound | 25 | 26 | 27 | 28 | 29 | 30 |
| --- | --- | --- | --- | --- | --- | --- |
| PMP22 txn | 4% | 21% | -4% | ? | -6% | ? |
| HTT prom inh | -12% | 3% | 1% | -19% | -2% | -9% |

(31) CCSc1ncc(Cl)c(C(=O)N(Cc2ccccc2)Cc2ccco2)n1
(32) COc1ccc(OC)c(-n2nnc(-c3nc(-c4cc(OC)c(OC)c(OC)c4)no3)c2C)c1
(33) Cc1cccn2c(=O)c(-c3nnn[nH]3)cnc12
(34) CCOc1ccc(-n2nc3ccc(NC(=O)Cc4ccccc4)cc3n2)cc1
(35) CC(=O)c1ccc(NC(=O)c2nc(-c3ccccc3)n(-c3ccccc3)n2)cc1
(36) CCOc1ccc(-c2nonc2NC(=O)c2ccc(C)cc2)cc1OCC

| Compound | 31 | 32 | 33 | 34 | 35 | 36 |
| --- | --- | --- | --- | --- | --- | --- |
| PMP22 txn | ? | -1% | nt | 5µM* | ? | -11% |
| HTT prom inh | -28% | 3% | -7%[25.2 µM] | ? | -2% | -3% |

(37) Cc1cc(C)cc(NC(=O)CCS(=O)(=O)c2cccc3nsnc23)c1
(38) COc1ccc(OCC(=O)Nc2nc(-c3ccc(Br)cc3)ns2)cc1
(39) CCCOc1ccc(/C=C/C(=O)Nc2sc(C)c(C)c2C(=O)OCC)cc1OC
(40) NS(=O)(=O)c1ccc(NC(=O)c2csnn2)cc1
(41) CCCn1c(SCc2nc(-c3ccccc3OCC)no2)nnc1-c1ccc(Cl)cc1
(42) C=C1C(=O)OC2C=C(C)CCC=C(C)CCC12 (centres undefined)

| Compound | 37 | 38 | 39 | 40 | 41 | 42 |
| --- | --- | --- | --- | --- | --- | --- |
| PMP22 txn | 1% | 8% | -1% | -16% | ? | nt |
| HTT prom inh | -1% | 25% | -10% | -7% | ? | -2% |

(43) Cc1ccc(OCc2nc(-c3ccc(C(=O)N4CCN(c5cc(Cl)ccc5C)CC4)cc3)oc2C)cc1
(44) CCOC(=O)c1nc(NCc2ccc(Cl)cc2)c2c(C)noc2n1
(45) CN(CC(=O)NCc1ccc(Cl)cc1)S(=O)(=O)c1ccc2[nH]c3c(c2c1)CCCC3
(46) Cc1ccc(-c2nc3scc(CCNS(=O)(=O)c4ccc(F)c(C)c4)n3n2)cc1
(47) CCc1ccc(-n2c(SCc3cccc(F)c3)nc3[nH]ncc3c2=O)cc1
(48) Cc1ccc(CCNC(=O)CN2C(=O)COc3ccc(S(=O)(=O)N4CCCCC4)cc32)cc1

| Compound | 43 | 44 | 45 | 46 | 47 | 48 |
| --- | --- | --- | --- | --- | --- | --- |
| PMP22 txn | ? | 39% | ? | -10% | 16µM* | -6% |
| HTT prom inh | -9% | 0% | -27% | -26% | ? | -18% |

(49) COc1ccc(Cl)cc1C(=O)NCC(c1ccc(N(C)C)cc1)N1CCOCC1 (centres undefined)
(50) CCCOc1ccc(C(=O)N(Cc2ccc(Cl)cc2)Cc2ccco2)cc1
(51) CCOC(=O)Cn1c(=O)n(CC2CCCO2)c2nc(-c3ccc(OC)cc3OC)nc(C(N)=O)c21 (centres undefined)
(52) COc1ccc2c(c1)c1c(c(=O)n(Cc3ccccc3)c(=O)n1Cc1cc(C)ccc1C)n2C
(53) Cc1cc(C)cc(N2C(=O)CSC23C(=O)N(CC(=O)NCCc2ccccc2)c2ccccc23)c1 (centres undefined)
(54) O=C(OCC1CCCO1)c1ccc2c(c1)N(Cc1ccccc1Cl)C(=O)c1ccccc1S2(=O)=O (centres undefined)

| Compound | 49 | 50 | 51 | 52 | 53 | 54 |
| --- | --- | --- | --- | --- | --- | --- |
| PMP22 txn | 12% | -12% | 1% | 11% | -1% | 0% |
| HTT prom inh | -6% | -29% | -13% | -10% | -4% | -3% |

(55) CN(C)S(=O)(=O)c1ccc(C(=O)Nc2ccc(-n3nncc3-c3ccccc3)cc2)cc1
(56) COc1ccc(CNC(=O)CCNS(=O)(=O)c2cccc3nsnc23)cc1
(57) Cc1ccccc1CN1C(=O)C(O)(c2c[nH]c3ccccc23)c2cc(Cl)ccc21 (centres undefined)
(58) CCOc1ccc(-n2ccnc2SCC(=O)Nc2nc3ccc(C)cc3s2)cc1
(59) Cc1ccc(-n2ncc3c(N4CCCCC4)ncnc32)cc1Cl
(60) Cc1cc(C)n2c(Nc3ccc(Cl)cc3)c(-c3ccsc3)nc2n1

| Compound | 55 | 56 | 57 | 58 | 59 | 60 |
| --- | --- | --- | --- | --- | --- | --- |
| PMP22 txn | -89% | 0% | ? | 8.9µM* | -14% | -11% |
| HTT prom inh | ? | -5% | -15% | ? | -86% | -22% |

Reprinted from the part before: 4 compounds; new compounds follow.
(57) Cc1ccccc1CN1C(=O)C(O)(c2c[nH]c3ccccc23)c2cc(Cl)ccc21 (centres undefined)
(58) CCOc1ccc(-n2ccnc2SCC(=O)Nc2nc3ccc(C)cc3s2)cc1
(59) Cc1ccc(-n2ncc3c(N4CCCCC4)ncnc32)cc1Cl
(60) Cc1cc(C)n2c(Nc3ccc(Cl)cc3)c(-c3ccsc3)nc2n1
(61) COc1cc(NC(=O)c2nc3ccccc3nc2C)cc(OC)c1OC
(62) O=C(Nc1sc2c(c1C(=O)Nc1cccc(Cl)c1)CCCC2)c1cccs1
(63) Cc1c(Cl)cccc1-n1c(CCC(=O)O)ccc1-c1cccs1
(64) CC(CNC(=O)Cn1ncc2c3ccccc3n(Cc3cccc(Cl)c3)c2c1=O)c1ccccc1 (centres undefined)
(65) Cn1c(=O)c2ccccc2n2c(CCC(=O)N3CCN(c4cccc(Cl)c4)CC3)nnc12
(66) Cc1cccc(NC(=O)Nc2ccc(Br)cc2)n1

| Compound | 57 | 58 | 59 | 60 | 61 | 62 | 63 | 64 | 65 | 66 |
| --- | --- | --- | --- | --- | --- | --- | --- | --- | --- | --- |
| PMP22 txn | ? | 8.9µM* | -14% | -11% | -19% | -6% | 8% | ? | -7% | -5% |
| HTT prom inh | -15% | ? | -86% | -22% | 9% | -11% | -8% | -9% | -1% | 48%[activator] |

(67) Cc1ccc(-c2nn(CCC(=O)Nc3ccc(Cl)c(Cl)c3)c(=O)c3ccccc23)cc1
(68) Cc1cc(C)c(Cn2c3ccccc3c3cnn(CC(=O)NCc4cccs4)c(=O)c32)c(C)c1
(69) Cc1ccc(CSc2nc3ccc(NC(=O)COc4ccccc4F)cc3s2)cc1
(70) COc1ccc(NCc2cc3cc4c(cc3n(CC(=O)Nc3ccc(F)cc3)c2=O)OCCO4)cc1
(71) CSc1ncc(Cl)c(C(=O)N(Cc2ccc(C(C)C)cc2)C2CCS(=O)(=O)C2)n1 (centres undefined)
(72) CCOc1ccc(-c2cc(C(=O)NCCc3ccc(OC)c(OC)c3)[nH]n2)cc1

| Compound | 67 | 68 | 69 | 70 | 71 | 72 |
| --- | --- | --- | --- | --- | --- | --- |
| PMP22 txn | 1% | ? | ? | ? | -21% | -153% |
| HTT prom inh | -9% | -21% | -15% | -24% | -27% | -9% |

(73) COc1ccc(CNC(=O)c2cnc3sc4cc(OC)ccc4n3c2=O)cc1
(74) CC(C)c1cnc2c(c1SCC(=O)Nc1cccc(F)c1)c(=O)n(C)c(=O)n2C
(75) CC(=O)N1CCc2cc(CNC(=O)c3ccccc3Br)ccc21
(76) CCc1cccc(C)c1NC(=O)CCCN1C(=O)C(c2ccccc2)Oc2cccnc21 (centres undefined)
(77) O=C(O)c1c(CNCc2cccc(F)c2)c2ccccc2n1Cc1ccccc1
(78) Cc1cc(C(C)(C)C)cc(C)c1CC1=NCCN1

| Compound | 73 | 74 | 75 | 76 | 77 | 78 |
| --- | --- | --- | --- | --- | --- | --- |
| PMP22 txn | 9% | ? | -3% | ? | 0% | nt |
| HTT prom inh | -7% | -17% | 20% | ? | -27% | 2%&6% |

(79) Cc1ccc(CSCC(=O)N2CCN(c3ccccc3F)CC2)cc1
(80) CN(C)c1ccc(NC(=O)C2(c3cccs3)CCOCC2)cc1
(81) Cc1ccc(C)c(NC(=O)CSc2nnc(NC(=O)Nc3ccccc3)s2)c1
(82) Cc1cc(C)c(NC(=O)CSc2nncn3c2cc2oc(C)cc23)c(C)c1
(83) Cc1ccc2nc(-c3ccc(Cl)c(NC(=O)c4cccc([N+](=O)[O-])c4C)c3)oc2c1

| Compound | 79 | 80 | 81 | 82 | 83 |
| --- | --- | --- | --- | --- | --- |
| PMP22 txn | -40% | -16% | ? | -15% | 0% |
| HTT prom inh | -20% | -1% | -8% | 1% | 11% |
